# From PubChem BioAssay
# mut p53 SMM – binders of human mutant p53; small molecule microarray binding, anti-GST fluorescence; calls only; actives 0.4% (n = 17,000); AID 624136;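 active = compounds whose four printed spots each glow above background more than chance allows, each with a p-value under 7%; compounds were printed on slides so no solution concentration is given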;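 note: about 2 pmol printed per array spot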
# c-Myc SMM – binders of human c-Myc. P01106. small molecule microarray, His-c-Myc binding, anti-His fluorescence. calls only. actives 1.5% (n = 17,000);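 active = spot fluorescence over background with P-value below 7% in all four replicate spots, showing protein binding; compounds were printed on slides so no solution concentration is given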;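 note: score is binary with 100 for all four spots passing and 0 otherwise; about 2 pmol printed per array spot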
# Target sequence (P01106 whole entry, looked up): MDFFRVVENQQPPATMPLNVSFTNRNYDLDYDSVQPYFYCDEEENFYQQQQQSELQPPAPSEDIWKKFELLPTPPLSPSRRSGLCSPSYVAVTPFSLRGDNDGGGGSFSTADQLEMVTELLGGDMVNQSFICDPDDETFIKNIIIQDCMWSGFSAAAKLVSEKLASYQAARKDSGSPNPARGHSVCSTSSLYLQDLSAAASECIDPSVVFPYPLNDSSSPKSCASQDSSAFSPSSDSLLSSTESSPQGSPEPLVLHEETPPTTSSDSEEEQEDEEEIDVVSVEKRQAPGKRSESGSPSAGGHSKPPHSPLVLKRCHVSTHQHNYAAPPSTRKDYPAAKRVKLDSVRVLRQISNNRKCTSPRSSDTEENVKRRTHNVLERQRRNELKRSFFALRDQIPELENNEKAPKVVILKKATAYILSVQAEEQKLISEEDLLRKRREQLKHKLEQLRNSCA
# ID4 binder – ID4 (human) binding | P47928 | small molecule microarray, Flag-ID4 binding, fluorescence F/B | calls only | actives 1.2% (n = 31,000) | AID 624137;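 active = spot signal over background at p below 0.07 in all four prints; compounds were printed on slides so no solution concentration is given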;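 note: a binder raises fluorescence above local background on the spot; about 2 pmol printed per array spot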
# Target sequence (P47928 whole entry, looked up): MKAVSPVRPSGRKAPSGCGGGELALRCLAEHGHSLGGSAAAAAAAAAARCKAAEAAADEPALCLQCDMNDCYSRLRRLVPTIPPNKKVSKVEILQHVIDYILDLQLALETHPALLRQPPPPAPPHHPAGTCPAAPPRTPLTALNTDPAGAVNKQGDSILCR
# STAT3 SMM – binders of human STAT3. P40763. Small molecule microarray, His-STAT3 binding, anti-His fluorescence. calls only. actives 0.2% (n = 17,000). AID 624138;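 active = compounds whose four printed spots each show fluorescence over background unusually high for their array block, chance value under 7%; compounds were printed on slides so no solution concentration is given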;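 note: about 2 pmol printed per array spot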
# Calls only; i = inactive; . = not tested or not shown; + = active, no number.
# Every second line gives: mut p53 SMM | c-Myc SMM | ID4 binder | STAT3 SMM
O=C(CSc1nc(O)cc(=O)n1-c1ccccc1)N1CCc2ccccc21
  + | i | i | i
C[C@H](CO)N1C[C@H](C)[C@H](CN(C)C)Oc2c(NS(=O)(=O)c3cn(C)cn3)cccc2C1=O
  i | i | i | i
CCC1=C(C)CN(C(=O)NCCc2ccc(S(=O)(=O)NC(=O)NC3CCC(C)CC3)cc2)C1=O (stereo not drawn)
  i | i | i | i
CC(C)(CO)NCc1ccc(-c2ccccc2)o1
  i | i | i | i
C[C@@H]1CCCCO[C@H](CN(C)C(=O)Nc2ccc3c(c2)OCO3)[C@@H](C)CN([C@@H](C)CO)C(=O)c2cc(NS(=O)(=O)c3ccc(F)cc3)ccc2O1
  i | i | . | i
CC(C)NC(=O)Nc1cccc2c1O[C@@H](CN(C)S(=O)(=O)c1ccc(Cl)cc1)[C@@H](C)CN([C@@H](C)CO)C2=O
  i | i | . | i
CN(c1ccc(OCC(=O)O)cc1)S(=O)(=O)c1ccc(F)cc1
  i | i | i | i
COc1ccc(CN(C)C[C@H]2Oc3ccc(NS(C)(=O)=O)cc3C(=O)N([C@@H](C)CO)C[C@@H]2C)cc1
  i | i | . | i
Cc1ccc(S(=O)(=O)Nc2ccc3c(c2)C(=O)N([C@@H](C)CO)C[C@H](C)[C@@H](CN(C)Cc2ccc(-c4ccccc4)cc2)O3)cc1
  i | i | . | i
COc1ccc(NC(=O)Nc2cccc3c2O[C@@H](CN(C)S(=O)(=O)c2ccc(OC)cc2)[C@@H](C)CN([C@@H](C)CO)C3=O)cc1
  i | i | i | i
CNC[C@@H]1Oc2ccc(N)cc2C(=O)N([C@@H](C)CO)C[C@H]1C
  i | i | i | i
CS(=O)(=O)N(CC(=O)Nc1ccccc1C(F)(F)F)c1ccccc1Br
  i | i | i | i
CNC[C@@H]1Oc2ccc(N(C)C)cc2CC(=O)N([C@H](C)CO)C[C@@H]1C
  i | i | i | i
O=C(O)CCC(=O)Nc1ccc(-c2nc3ccccc3o2)cc1
  i | i | i | i
COc1ccc([Si](C)(C)[C@H]2[C@H](CCn3cc([C@H](O)c4ccccc4)nn3)O[C@@]3(C(=O)N(C)c4ccccc43)[C@@H]2C)cc1
  i | i | i | i
C[C@H](CO)N1C[C@H](C)[C@@H](CN(C)C(=O)Nc2cccc3ccccc23)Oc2ccc(NC(=O)C3CC3)cc2C1=O
  i | i | i | i
C[C@H](CO)N1C[C@H](C)[C@H](CN(C)Cc2ccncc2)Oc2ccc(NC(=O)Cc3cn(C)c4ccccc34)cc2CC1=O
  i | i | i | i
CCn1c(-c2nonc2NC(=O)c2ccccc2)nc2ccccc21
  i | i | i | i
COC(=O)[C@H]1[C@@H]2COc3ccccc3[C@H]2N[C@H]1C(=O)OC
  i | i | . | i
COC(=O)c1cc(NC(=O)CN(c2cc(C)cc(C)c2)S(C)(=O)=O)ccc1Cl
  i | i | i | i
CC(C)NC(=O)Nc1ccc2c(c1)CC(=O)N([C@@H](C)CO)C[C@H](C)[C@H](CN(C)CC1CC1)O2
  i | i | i | i
O=C(O)CC(NC(=O)c1ccccc1)c1ccccc1 (stereo not drawn)
  i | i | i | i
C[C@H]1CN([C@@H](C)CO)C(=O)Cc2cc(NC(=O)c3ccncc3)ccc2O[C@@H]1CN(C)C(=O)NC1CCCCC1
  i | i | i | i
CNC[C@@H]1Oc2c(NS(=O)(=O)c3cn(C)cn3)cccc2C(=O)N([C@@H](C)CO)C[C@@H]1C
  i | i | i | i
O=C(C1=C[C@H](c2ccc(C(F)(F)F)cc2)C[C@H](OCc2ccc(CO)cc2)O1)N1CCOCC1
  i | i | . | i
CC1(C)Cc2nc3nc(SCC(=O)Nc4ccccc4)n(-c4ccccc4)c(=O)c3cc2CO1
  i | i | i | i
C[C@@H]1CN([C@@H](C)CO)C(=O)c2cc(NC(=O)CCCN(C)C)ccc2O[C@@H]1CN(C)S(=O)(=O)c1ccc(F)cc1
  i | i | . | i
C[C@@H]1CN([C@@H](C)CO)C(=O)c2cccc(N(C)C)c2O[C@@H]1CN(C)S(=O)(=O)c1ccc(Cl)cc1
  i | i | i | i
CCO[C@@H]1OC(C(=O)NCc2nc3ccccc3[nH]2)=C[C@H](C2CC2)[C@H]1CCCO
  i | i | i | i
COC(=O)Cc1[nH]nc2c1C1(CCSCC1)C(C#N)=C(N)O2
  i | i | i | i
Cc1nnc(SCc2ccccc2C#N)n1-c1ccccc1
  i | i | i | i
C[C@H]1CN([C@@H](C)CO)C(=O)c2cc(NC(=O)NC3CCCCC3)ccc2O[C@H]1CN(C)S(=O)(=O)c1ccc(Cl)cc1
  i | i | i | i
CNC[C@H]1Oc2c(NC(=O)c3nc4ccccc4s3)cccc2C(=O)N([C@@H](C)CO)C[C@@H]1C
  i | i | i | i
Cc1ccc(S(=O)(=O)N(C)C[C@H]2Oc3ccc(NC(=O)C4CC4)cc3CC(=O)N([C@H](C)CO)C[C@@H]2C)cc1
  i | i | i | i
NC(=O)NCC#Cc1ccc2c(c1)[C@]1(C(=O)N2)[C@H](C(=O)N2CCCCCCC2)[C@H]2C(=O)O[C@H](c3ccccc3)[C@H](c3ccccc3)N2[C@@H]1c1ccccc1OCCO
  + | + | . | i
COc1ccc(CN(C)C[C@@H]2Oc3c(NC(=O)c4cnccn4)cccc3C(=O)N([C@H](C)CO)C[C@H]2C)cc1
  i | i | i | i
O=C1c2ccccc2-[n+]2ccc3c([nH]c4ccccc43)c21
  i | i | . | i
O=C(CSc1nc2ccc(NC(=O)c3ccccc3F)cc2s1)c1cccc([N+](=O)[O-])c1
  i | i | i | i
CNC(=S)N(Cc1ccncc1)C1CC(=O)N(c2ccc(OC)cc2)C1=O (stereo not drawn)
  i | i | i | i
c1ccc(COCCCc2cnc[nH]2)cc1
  i | i | i | i
O=C(O)CCC/C=C\CC1C2CCC(O2)C1CNNC(=O)Nc1ccccc1 (stereo not drawn)
  i | i | i | i
C=CCN1Cc2ccccc2[C@H]2OC(c3ccc(OCCCO)cc3)=N[C@@]2(Cc2ccccc2)C1=O
  i | i | i | i
Cc1c(CC(=O)O)c(=O)oc2cc(OCC(=O)O)ccc12
  i | + | i | i
CCO[C@H]1OC(C(=O)O)=C[C@@H](c2ccccc2)[C@@H]1CCCO
  i | i | i | i
C[C@@H]1CC(=O)C2=C(C1)C[C@@H](O)[C@@]1(O)C2C(=O)c2cccc(O)c2[C@@H]1O (stereo partly drawn)
  i | i | i | i
CC12CCC3C(CCC4CC(O)CCC43C)C1CC=C2c1ccccc1 (stereo not drawn)
  i | i | i | i
C[C@@H]1CN([C@H](C)CO)C(=O)c2cc(NC(=O)Nc3ccc(F)cc3)ccc2O[C@H]1CN(C)Cc1ccc2c(c1)OCO2
  i | i | i | i
C[C@H](CO)N1C[C@H](C)[C@@H](CN(C)C(=O)Cc2ccccc2)OCCCC[C@H](C)Oc2ccc(NC(=O)Nc3ccc(F)cc3)cc2C1=O
  i | i | i | i
Cc1noc(C)c1S(=O)(=O)Nc1ccc2c(c1)C(=O)N([C@@H](C)CO)C[C@H](C)[C@@H](CN(C)C(=O)Nc1ccc(F)cc1)O2
  i | i | i | i
O=C(Nc1ccc(Br)cc1)c1cccc(S(=O)(=O)Nc2ccccn2)c1
  i | i | i | i
C[C@@H]1CN([C@H](C)CO)C(=O)Cc2cc(N(C)C)ccc2O[C@H]1CN(C)Cc1ccc(C(F)(F)F)cc1
  i | i | i | i
CC(C)NC(=O)N(C)C[C@H]1OCCCC[C@@H](C)Oc2ccc(NC(=O)Nc3ccccc3)cc2C(=O)N([C@H](C)CO)C[C@@H]1C
  i | i | i | i
COc1cc(OC)c(C(=O)c2ccc(O)cc2)c(OC)c1
  i | i | i | i
Cc1ccc2cccc(S(=O)(=O)n3nc(C)cc3C)c2n1
  i | i | i | i
Cc1ccc(S(=O)(=O)N(C)C[C@@H]2Oc3ccc(NC(=O)Cc4ccccc4)cc3C(=O)N([C@@H](C)CO)C[C@H]2C)cc1
  i | i | . | i
Cc1cc([N+](=O)[O-])nn1CC(=O)Nc1cc(F)ccc1F
  i | i | i | i
C[C@@H]1CN([C@@H](C)CO)C(=O)c2cc(NC(=O)C3CC3)ccc2O[C@H]1CN(C)C(=O)Nc1cccc2ccccc12
  i | i | i | i
C[C@H]1CN([C@@H](C)CO)C(=O)c2cccc(NS(=O)(=O)c3cccs3)c2O[C@@H]1CN(C)Cc1ccc(C(=O)O)cc1
  i | i | i | i
C[C@@H]1CCCCO[C@H](CN(C)Cc2ccncc2)[C@H](C)CN([C@@H](C)CO)C(=O)c2cc(NS(=O)(=O)c3ccccc3)ccc2O1
  i | i | i | i
CNC1CCc2cc(OC)c(OC)c(OC)c2-c2ccc(OC)c(=O)cc21 (stereo not drawn)
  i | i | . | i

# Grouped by structure, the compounds so far with a Cl atom.
# Every second line gives: mut p53 SMM | c-Myc SMM | ID4 binder | STAT3 SMM
CC(C)NC(=O)Nc1cccc2c1O[C@@H](CN(C)S(=O)(=O)c1ccc(Cl)cc1)[C@@H](C)CN([C@@H](C)CO)C2=O
  i | i | . | i
COC(=O)c1cc(NC(=O)CN(c2cc(C)cc(C)c2)S(C)(=O)=O)ccc1Cl
  i | i | i | i
C[C@@H]1CN([C@@H](C)CO)C(=O)c2cccc(N(C)C)c2O[C@@H]1CN(C)S(=O)(=O)c1ccc(Cl)cc1
  i | i | i | i
C[C@H]1CN([C@@H](C)CO)C(=O)c2cc(NC(=O)NC3CCCCC3)ccc2O[C@H]1CN(C)S(=O)(=O)c1ccc(Cl)cc1
  i | i | i | i

# Reprinted at random: 4 entries already listed.
# Every second line gives: mut p53 SMM | c-Myc SMM | ID4 binder | STAT3 SMM
O=C(CSc1nc2ccc(NC(=O)c3ccccc3F)cc2s1)c1cccc([N+](=O)[O-])c1
  i | i | i | i
O=C1c2ccccc2-[n+]2ccc3c([nH]c4ccccc43)c21
  i | i | . | i
C[C@@H]1CN([C@H](C)CO)C(=O)c2cc(NC(=O)Nc3ccc(F)cc3)ccc2O[C@H]1CN(C)Cc1ccc2c(c1)OCO2
  i | i | i | i
CNC1CCc2cc(OC)c(OC)c(OC)c2-c2ccc(OC)c(=O)cc21 (stereo not drawn)
  i | i | . | i

# (more compounds)
# Every second line gives: mut p53 SMM | c-Myc SMM | ID4 binder | STAT3 SMM
CN(C)c1nc(Nc2nc3ccccc3[nH]2)nc(N(C)C)n1
  i | i | i | i
Cc1noc(C)c1NC(=O)N(C)C[C@H]1Oc2ccc(NS(=O)(=O)c3cccs3)cc2C(=O)N([C@H](C)CO)C[C@@H]1C
  i | i | i | i
CC1=CC[C@@]2(C)CC[C@@](O)(C(C)C)[C@@H]2[C@@H](O)C1
  i | i | . | i
CC(C)NC(=O)Nc1ccc2c(c1)C(=O)N([C@@H](C)CO)C[C@@H](C)[C@@H](CN(C)C(=O)c1ccncc1)OCCCC[C@H](C)O2
  i | i | i | i
C[C@@H]1CN([C@@H](C)CO)C(=O)CCCn2nncc2CO[C@H]1CN(C)C(=O)C1CC1
  i | i | i | i
C[C@H]1CN([C@@H](C)CO)C(=O)Cc2cc(NC(=O)NC3CCCCC3)ccc2O[C@@H]1CN(C)S(=O)(=O)c1cn(C)cn1
  i | i | i | i
COC(=O)c1ccccc1NC(=O)CNS(=O)(=O)c1cc(Cl)ccc1Cl
  i | i | i | i
CC(C)(O)C(O)COc1c2occc2cc2ccc(=O)oc12 (stereo not drawn)
  i | i | i | i
Cc1ccc2nc(-c3ccccc3)cc(C(=O)NCCCn3ccnc3)c2c1
  i | i | i | i
C[C@H](CO)N1C[C@H](C)[C@@H](CN(C)CC2CC2)Oc2ccc(NS(=O)(=O)c3cccs3)cc2C1=O
  i | i | i | i
Cn1c(SCC(=O)c2ccc(F)cc2)nnc1-c1ccc(NC(=O)c2ccccc2Br)cc1
  i | i | i | i
C=CC[C@]1(C(=O)NCCCOC)N=C(c2ccc(OCCCO)cc2)O[C@H]1c1ccccc1
  i | i | i | i
CNC[C@@H]1OCCCC[C@H](C)Oc2ccc(NC(=O)c3ccncc3)cc2C(=O)N([C@@H](C)CO)C[C@H]1C
  i | i | i | i
O=C1C(=O)N(CCN2CCOCC2)C(c2ccncc2)C1C(=O)c1cc2ccccc2o1 (stereo not drawn)
  i | i | i | i
C[C@H]1CCCCO[C@@H](CN(C)S(=O)(=O)c2ccccc2)[C@@H](C)CN([C@@H](C)CO)C(=O)c2cc(NC(=O)c3ccccc3)ccc2O1
  i | i | i | i
COc1ccc(NC(=O)O[C@H]2[C@H](OC(=O)Nc3ccccc3-c3ccccc3)[C@H](OC(=O)Nc3ccccc3-c3ccccc3)[C@@H](OC)O[C@@H]2CO)cc1
  i | i | i | i
C[C@H](CO)N1C[C@H](C)[C@H](CN(C)C(=O)Nc2ccc(F)cc2)Oc2ccc(NS(=O)(=O)c3cccs3)cc2CC1=O
  i | i | i | i
CC(C)(C)[C@H]1C=C(C(=O)NCc2ccccc2)O[C@@H](OCc2ccc(CO)cc2)C1
  i | i | . | i
CC1CCc2c(sc(NC(=S)NC(=O)c3ccc(-c4ccc(Cl)cc4)o3)c2C(N)=O)C1 (stereo not drawn)
  i | i | i | i
COc1ccccc1NC(=O)CSc1nnc(-c2ccc(Cl)cc2)o1
  i | i | i | i

# Some of the compounds tested, so the mix of outcomes need not match the whole.
